Assay outcomes deposited in PubChem BioAssay by Broad Institute.
BJeLR viability: BJeLR cell viability loss, primary screen, luminescence, CellTiterGlo ATP; BJeLR fibroblasts viability, 48 h; HRASV12, hTERT and SV40 LT/ST transformed; viability loss activity score, % (no concentration beside the values); 0.64% of 30,000 active; in the data active = viability loss activity score above about 50%; about a fifth of its hits are not listed in these tables;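 also: higher score means fewer live cells and less ATP luminescence; stock transfer was 50 or 100 nL into about 30 µL; 0% = vehicle wells and 100% = a reference killing control; one replicate is shown; the record names a cut of 85%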
A1 inh: inducers of caspase activity in MEF A1-2A-BIM cells, primary screen, A1 inhibitor project, cell-based, CaspaseGlo luminescence. AID 2241, 2010. caspase activation, % (test concentration not listed). caspase-Glo luminescence, 3 h; percent of clofoctol signal, DMSO as zero. 0.51% of 21,000 active;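 active = most replicate scores above 10, or exactly half above 10 with mean activity above 10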;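 also: effector caspase 3 and 7 activity cleaving a DEVD luciferin substrate; 50 nL library stock added to about 30 µL; numbers are from one replicate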
* marks the source's active call; other numbers are inactive results; / = no result given.

item	SMILES	BJeLR viability	A1 inh
1	C[C@@H]1CN([C@H](C)CO)C(=O)c2cccc(NC(=O)c3ccc(-c4nccs4)cc3)c2O[C@H]1CN(C)Cc1ccc2c(c1)OCO2	-0.3	/
2	COc1ccc(C2C3=C(CCCC3=O)N=C3c4ccccc4C(=O)C32)cc1 (stereo not drawn)	-6.4	0.3
3	CCc1cc2c3c(c(=O)oc2cc1OC)CCCC3	-4.4	0.4
4	C[C@@H]1CN([C@@H](C)CO)C(=O)c2cccc(NC(=O)C3CCCCC3)c2O[C@@H]1CN(C)S(=O)(=O)c1ccccc1	-2.5	/
5	CCOc1cccc(NC(=O)C2CC(=O)N(/N=C(\C)c3ccc(Br)s3)C(=N)S2)c1 (stereo not drawn)	-6.9	0.6
6	Cc1noc(C)c1NC(=O)Nc1cccc2c1O[C@H](CN(C)Cc1ccc3c(c1)OCO3)[C@H](C)CN([C@@H](C)CO)C2=O	1.3	/
7	Cc1cc(C(=O)Nc2cccc3c2O[C@H](CN(C)C(=O)Nc2ccccc2)[C@@H](C)CN([C@@H](C)CO)C3=O)n(C)n1	-1.1	/
8	C[C@@H]1CN([C@H](C)CO)C(=O)c2cccc(NS(=O)(=O)c3ccc(Cl)cc3)c2O[C@@H]1CN(C)C	0.9	/
9	Cc1cc(C)c2c(/N=N/N3CCCCCC3)[nH]nc2n1	2.8	-0.1
10	CCC(=O)N1CCc2cc(S(=O)(=O)NC(C)C)ccc21	2.4	/
11	C[C@H]1CN([C@@H](C)CO)C(=O)c2cc(NC(=O)CCN3CCOCC3)ccc2O[C@H]1CN(C)C(=O)Nc1ccc(F)cc1	3.5	0.9
12	C[C@H]1CN([C@@H](C)CO)C(=O)c2cc(NC(=O)Nc3ccc(F)cc3)ccc2O[C@H]1CN(C)Cc1ccc(Cl)c(Cl)c1	0.5	0.5
13	CC(C)(C)NC(=S)NCC1CC1	24.7	-0.4
14	CC1OC(OC2C(OC3C(O[C@H]4CC[C@@]5(C)C(CC[C@]6(C)C5CC=C5[C@@H]7CC(C)(C)C[C@@H](O)[C@]7(C)CC[C@]56C)C4(C)C)OC(C(=O)O)C(O)C3O)OC(CO)C(O)C2O)C(O)C(O)C1O (stereo partly drawn)	2.1	0.4
15	C[C@@H]1CN([C@H](C)CO)C(=O)c2cccc(N(C)C)c2O[C@@H]1CN(C)C(=O)NC1CCCCC1	-2.4	/
16	C[C@H]1CN([C@@H](C)CO)C(=O)c2cc(NC(=O)Nc3cccc4ccccc34)ccc2O[C@@H]1CN(C)S(C)(=O)=O	1.8	-0.3
17	CN1C2CCC1CC(NC(=O)c1nn(C)c3ccccc13)C2 (stereo not drawn)	-5.6	0.3
18	COc1ccc(S(=O)(=O)N(C)C[C@@H]2Oc3c(NC(=O)Nc4ccc5c(c4)OCO5)cccc3C(=O)N([C@H](C)CO)C[C@H]2C)cc1	-0.8	/
19	O=C(Nc1cccc(-c2cn3ccccc3n2)c1)c1cccc(Cl)c1	-3.7	2.5
20	C[C@H](CO)N1C[C@H](C)[C@@H](CN(C)Cc2ccncc2)Oc2ccc(NS(=O)(=O)c3cccs3)cc2C1=O	0.2	0.2
21	Cc1ccc(NC(=O)CSc2nnc(N3C(=O)c4ccccc4C3=O)s2)c(C)c1	8.1	-0.5
22	Cc1cc(C(F)(F)F)c2c(-c3ccccc3)nn(-c3ccccc3)c2n1	-2.3	/
23	COc1ccc(NC(=O)N(C)C[C@@H]2Oc3c(NS(=O)(=O)c4ccc(C)cc4)cccc3C(=O)N([C@@H](C)CO)C[C@H]2C)cc1	2.0	/
24	CCOC(=O)N1CCC(N/C=C(\C#N)S(=O)(=O)C(C)C)CC1	-2.2	1.2
25	C[C@H](CO)N1C[C@H](C)[C@@H](CN(C)C(=O)Nc2ccccc2)Oc2c(NC(=O)c3ccncc3)cccc2C1=O	-6.0	/

Entries of single compounds from above. Screens in order: BJeLR viability | A1 inh
`CCOC(=O)N1CCC(N/C=C(\C#N)S(=O)(=O)C(C)C)CC1` as listed: -2.2 | 1.2
`COc1ccc(C2C3=C(CCCC3=O)N=C3c4ccccc4C(=O)C32)cc1` (stereo not drawn) as listed: -6.4 | 0.3
`CN1C2CCC1CC(NC(=O)c1nn(C)c3ccccc13)C2` (stereo not drawn) as listed: -5.6 | 0.3
`Cc1cc(C(F)(F)F)c2c(-c3ccccc3)nn(-c3ccccc3)c2n1` as listed: -2.3 | /

Going on with the list:
item	SMILES	BJeLR viability	A1 inh
26	Cc1ccc(S(=O)(=O)Nc2cccc3c2O[C@@H](CN(C)Cc2ccc(-c4ccccc4)cc2)[C@@H](C)CN([C@@H](C)CO)C3=O)cc1	-6.0	/
27	Cc1nc(Oc2ccc3c(C)cc(=O)oc3c2)c2c3c(sc2n1)CCC3	2.9	-0.6
28	CNC(=S)N(Cc1ccc(OC)cc1OC)c1ccc(I)cc1	-3.4	0.7
29	O=C(NCc1cccnc1)c1cc(-c2cccc(Br)c2)nc2ccccc12	-0.4	0.1
30	C[C@H](CO)N1C[C@H](C)[C@@H](CN(C)Cc2ccccc2)Oc2ccc(NC(=O)C3CC3)cc2C1=O	8.1	-0.6
31	Cc1ccc(S(=O)(=O)N(C)C[C@@H]2Oc3c(NS(C)(=O)=O)cccc3C(=O)N([C@H](C)CO)C[C@H]2C)cc1	9.0	/
32	CN(C)/C=N/c1c(C#N)cnn1-c1ncnc2sc3c(c12)CCC3	-4.2	0.3
33	C=CCN(C(=O)CSc1nc2[nH]ncc2c(=O)n1-c1cccc2ccccc12)c1ccccc1	-2.2	0.1
34	Cc1cc(O)cc(C)c1Cl	12.6	0.5
35	COc1ccc(C2=Nc3ccccc3SC(c3ccccc3)C2)cc1 (stereo not drawn)	-4.5	-1.2
36	C[C@@H]1CN([C@H](C)CO)C(=O)c2cc(NC(=O)CCC(F)(F)F)ccc2O[C@@H]1CN(C)C	0.5	-0.6
37	O=C(CSc1nc2c(sc3ccccc32)c(=O)n1-c1ccccc1)N1CCCC1	-0.6	0.2
38	CCC(Sc1nc2ccsc2c(=O)n1Cc1ccccn1)C(=O)Nc1cccc(OC)c1 (stereo not drawn)	-2.1	0.3
39	C[C@H](CO)N1C[C@H](C)[C@H](CN(C)CC2CCCCC2)Oc2ccc(NC(=O)Nc3ccccc3)cc2C1=O	4.7	-0.1
40	O=C(NCc1c(Cl)cccc1Oc1ccccc1)c1ccccc1	-0.4	/
41	Cc1cc(C)cc(NC(=O)NCc2csc(-c3cccs3)n2)c1	0.2	5.4
42	CC(C)NC(=O)Nc1ccc2c(c1)C(=O)N([C@@H](C)CO)C[C@H](C)[C@H](CN(C)C(=O)Nc1cccc3ccccc13)O2	2.6	1.2
43	COc1c(OC)c(O)c2c(=O)cc(-c3ccc(O)cc3)oc2c1OC	6.1	-0.4
44	O=c1ccc2ccc(Oc3nc(-c4cccnc4)nc4ccccc34)cc2o1	0.8	0.3
45	NC(=O)c1nnc2cc(-c3ccccc3)nn2c1N	7.9	-5.5
46	CC1CCc2c(C(=O)O)csc2C1 (stereo not drawn)	-1.1	-1.7
47	Cc1c(C(=O)NCCC(C)C)oc2ccc(S(=O)(=O)N3CCC4(CC3)OCCO4)cc12	1.7	/
48	O=C(Oc1cccc2cccnc12)N1c2ccccc2Sc2ccccc21	-6.8	0.8
49	C=CCN1C(=O)C2(C(C#N)=C(N)Oc3c2c(=O)oc2ccccc32)c2ccccc21 (stereo not drawn)	4.1	-0.1
50	C[C@H]1CN([C@@H](C)CO)C(=O)c2cccc(N(C)C)c2O[C@@H]1CN(C)Cc1ccc(C(F)(F)F)cc1	5.3	/
51	CC(C)NC(=O)Nc1cccc2c1O[C@@H](CN(C)C(=O)Nc1ccc(F)cc1)[C@@H](C)CN([C@H](C)CO)C2=O	-6.2	/
52	COc1ccc(NC(=O)Nc2ccc3c(c2)C(=O)N([C@H](C)CO)C[C@H](C)[C@H](CN(C)S(=O)(=O)c2ccc(Cl)cc2)O3)cc1	3.6	1.1
53	CC(C)Oc1ccc2c(C(F)(F)F)cc(=O)oc2c1	-3.7	-0.4
54	C[C@H](CO)N1C[C@H](C)[C@H](CN(C)C(=O)NC2CCCCC2)Oc2ccc(NC(=O)CCCCCC(=O)Nc3ccccc3N)cc2C1=O	3.5	/
55	C[C@@H]1CN([C@H](C)CO)C(=O)c2cc(NS(=O)(=O)c3ccccc3)ccc2O[C@@H]1CN(C)Cc1ccc(C(=O)O)cc1	2.9	-0.1
56	COc1ccc(N2Cc3cccc(C(=O)Nc4cccc(OC)c4)c3C2=O)cc1	-7.0	/
57	C[C@H](CO)N1C[C@H](C)[C@@H](CN(C)S(=O)(=O)c2ccc(Cl)cc2)Oc2ccc(NC(=O)Nc3ccc4c(c3)OCO4)cc2C1=O	4.5	0.7
58	Cc1ccc2c(C)nc(N/C(N)=N/S(=O)(=O)c3ccccc3)nc2c1	5.4	0.1
59	CN1c2ccccc2C(=O)/C(=C\Nc2cc(C(F)(F)F)cc(C(F)(F)F)c2)S1(=O)=O	-5.2	-0.6
60	COC(=O)CNC(c1ccccc1)c1cc(Br)ccc1NC(=O)CCN1CCOCC1 (stereo not drawn)	0.9	-0.2
61	CCS(=O)(=O)N1CCN(CC2CC=CCC2)CC1 (stereo not drawn)	-0.8	-0.3
62	COc1cc(O)c2c(c1C)C(C)C(O)(CO)OC2=O (stereo not drawn)	-0.6	0.3
63	CSc1scc2c1-c1nn(C(=O)c3cccc(C(F)(F)F)c3)cc1CC2	-4.1	-0.8
64	O=C1Nc2ncccc2OC1c1ccccc1 (stereo not drawn)	1.8	-0.9
65	CC1CCN(C(=O)c2cc(Cl)ccc2Cl)CC1	4.4	-0.2
66	C[C@H]1CN([C@@H](C)CO)C(=O)c2cc(NC(=O)Nc3cccc4ccccc34)ccc2O[C@@H]1CN(C)C(=O)NC1CCCCC1	-0.4	-0.4
67	COc1ccc(NC(=O)N(C)C[C@@H]2Oc3ccc(NC(=O)Nc4ccc5c(c4)OCO5)cc3C(=O)N([C@@H](C)CO)C[C@H]2C)cc1	-1.1	-0.8
68	Cc1noc(C)c1S(=O)(=O)Nc1ccc2c(c1)C(=O)N([C@@H](C)CO)C[C@H](C)[C@@H](CN(C)C)O2	-3.6	0.0
69	C[C@@H]1CN([C@H](C)CO)C(=O)c2cccc(NC(=O)Nc3cccc4ccccc34)c2O[C@@H]1CN(C)Cc1ccc(-c2ccccc2)cc1	0.6	/
70	CCCc1ccc(CC2(CC(=O)OCC)C(=O)c3ccccc3C2=O)cc1	-1.8	-0.5
71	CCCCN(CC)Cc1ccc(CNC(=O)Nc2ccccc2)o1	0.6	-0.2
72	C[C@@H]1CN([C@H](C)CO)C(=O)c2cc(NC(=O)Nc3ccccc3)ccc2O[C@H]1CN(C)S(=O)(=O)c1ccccc1	1.5	0.1
73	CCCNS(=O)(=O)c1ccc2c(c1)OCC(=O)N2	-2.2	0.9
74	O=C(NCc1ccccc1)C1CCC1	2.1	0.0
75	CC(C)Cc1cc(C(=O)NC2CCCCC2)no1	4.7	/

Part of the list above, as labelled records:
#52 COc1ccc(NC(=O)Nc2ccc3c(c2)C(=O)N([C@H](C)CO)C[C@H](C)[C@H](CN(C)S(=O)(=O)c2ccc(Cl)cc2)O3)cc1
  BJeLR viability: 3.6 | A1 inh: 1.1
#53 CC(C)Oc1ccc2c(C(F)(F)F)cc(=O)oc2c1
  BJeLR viability: -3.7 | A1 inh: -0.4

The listing continues.
item	SMILES	BJeLR viability	A1 inh
76	C=CCn1c(-c2ccccc2)nn(CCC#N)c1=S	-3.4	-0.2
77	C[C@H]1CN([C@@H](C)CO)C(=O)c2cccc(NC(=O)C3CCCCC3)c2O[C@@H]1CN(C)Cc1ccncc1	-0.8	/
78	COc1ccc(NC(=O)Nc2cccc3c2O[C@@H](CN(C)C(=O)Nc2c(C)noc2C)[C@@H](C)CN([C@H](C)CO)C3=O)cc1	-0.4	/
79	Cc1ccc(NC(=O)c2cc3cc(OC(F)(F)F)ccc3[nH]2)cc1	-3.6	-0.2
80	NC(CSCc1ccccc1Cl)C(=O)O (stereo not drawn)	-2.4	1.1
81	CC(C)c1ccc(/C=C/C(=O)NC(=S)Nc2ccc(C(=O)O)cc2)cc1	-5.7	/
82	C[C@H](CO)N1C[C@H](C)[C@@H](CN(C)C(=O)Nc2ccc(C(F)(F)F)cc2)Oc2ccc(NS(=O)(=O)c3ccc(Cl)cc3)cc2C1=O	-3.3	0.1
83	C[C@H](CO)N1C[C@H](C)[C@H](CN(C)C(=O)Nc2ccc(F)cc2)Oc2ccc(NC(=O)NC3CCCCC3)cc2C1=O	1.9	1.2
84	Cc1cccc(C)c1NC(=S)N(CCC#N)C(C)C	-5.7	1.0
85	CC(C)NC(=O)Nc1ccc2c(c1)C(=O)N([C@H](C)CO)C[C@H](C)[C@H](CN(C)C)O2	3.1	0.1
86	C=Cn1cnc2c1c(=O)n(C)c(=O)n2C	-7.8	-0.1
87	C[C@@H]1CN([C@H](C)CO)C(=O)c2cccc(NC(=O)c3ccncc3)c2O[C@@H]1CN(C)Cc1ccc(Oc2ccccc2)cc1	-1.7	/
88	C[C@@H]1CN([C@@H](C)CO)C(=O)c2cccc(NC(=O)c3ccc(-c4nccs4)cc3)c2O[C@@H]1CN(C)Cc1ccc(C(=O)O)cc1	2.3	/
89	C[C@H]1CN([C@@H](C)CO)C(=O)c2cc(NS(=O)(=O)c3ccc(Cl)cc3)ccc2O[C@H]1CN(C)Cc1ccc(C(=O)O)cc1	3.4	-1.0
90	COc1ccc(NC(=O)CN2C(=O)C3C4C=CC(C4)C3C2=O)cc1 (stereo not drawn)	9.7	/
91	CC(C)NC(=O)/C(=N\O)c1ccccc1	0.3	-0.1

Not all compounds are listed. The share of hits here may be higher or lower than overall.
